Compound activity (PubChem BioAssay)
TRPML1 agonist – activates the human TRPML1 channel. AID 624414. activation, % (concentration not given with the values). 410,000 compounds, 0.12% hits. TRPML1-expressing cells, Ca2+ dye fluorescence, FDSS; host cell line not named in the record; reference of the full effect not given here. Q9GZU1; in the data active = activation above about 50%; inconclusive = about 30% to 50%; inactive = below about 30%; note: 0% is about no effect; the text of the record puts the active cut at 80%
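In this qHTS format, compounds were pin-transferred onto Ca8-dye-loaded TRPML1-DL cells induced with Tet overnight, and intracellular Ca2+ fluorescence was recorded kinetically for 110 s after a 10 s baseline. A subsequent 4uM final 54-4 (EC80) addition followed by a second 110 s read served as the antagonist phase.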
TRPML1 blocker – human mucolipin-1 channel inhibition; 390,000 compounds, 0.02% hits; TRPML1-inducible cells, Ca2+ dye fluorescence, FDSS; active compounds read low; inhibition of EC80 agonist-evoked calcium signal; activity change, negative = inhibition, % (test concentration not listed); in the data active means activity change below about -50%; inconclusive means about -30% to -50%; inactive means above about -30%;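 note: stimulus is agonist 54-4 at its EC80 concentration; % is set by controls: 0 for no effect and ±100 for the full control effect; compound concentration not given in the record; the text of the record puts the active cut at -80%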
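TRPML1-DL cells, Tet-induced overnight (~16 h, 37 °C) at 1,500 cells/well, were loaded with Ca8 no-wash dye plus quencher for 45-90 min at room temperature. Compounds were pinned during FDSS kinetic reading; agonist 54-4 at EC80 (4 uM final) then added.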
D2 agonist – human D2 receptor agonism in beta-arrestin assay | DiscoveRx PathHunter D2 beta-arrestin, luminescence, 90 min; 100% = 57 uM dopamine signal | activation, % (concentration not given with the values) | 360,000 compounds, 0.084% hits; in the data active = activation above about 40%; inconclusive = about 15% to 40%; inactive = below about 15%; note: the text of the record calls up to 30% inactive
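Agonist mode: compounds alone added to overnight-plated D2 PathHunter cells for 90 min at 37 C, with 57 uM final dopamine (EC100) defining full response. Beta-arrestin recruitment detected by chemiluminescent reagent, read after 1 h at ambient temperature.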
PINK1 modulator – PINK1 expression modulation; PINK1 immunofluorescence, high-content cytometry, 24 h; Potency, µM (top dose mostly 76.6 µM), for inactives: at the highest dose activation (PINK1 increase), actives largely listed as activators; 410,000 compounds, 0.2% hits; active = well fitted activation curve with a large enough effect; inconclusive = small, poorly fitted or top-dose-only effect; inactive = flat fitted curve, though single readings scatter; cell line not stated here;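 note: potency is the fitted concentration of half-maximal effect; % of control where 0% means no effect; nearly all actives have a fitted effect of over 65% in size; a mitochondrial uncoupler was the plate control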
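PINK1 protein level read as immunofluorescence by microplate cytometer in a fixed, stained stable cell line after 24 h exposure to five compound concentrations, with CCCP as control.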
Six1-Eya2 blk – blocks human Six1 binding to Eya2; AlphaScreen GST-Six1/His-Eya2 binding, biochemical; active compounds read low; control for the full effect not named in the record; activity change, % (concentration not given with the values); 360,000 compounds, 0.56% hits; AID 651725; in the data active = activity change below about -65%; inconclusive = about -30% to -65%; inactive = above about -30%; note: % is set by controls: 0 for no effect and ±100 for the full control effect
Target sequence (O00167 whole entry, looked up): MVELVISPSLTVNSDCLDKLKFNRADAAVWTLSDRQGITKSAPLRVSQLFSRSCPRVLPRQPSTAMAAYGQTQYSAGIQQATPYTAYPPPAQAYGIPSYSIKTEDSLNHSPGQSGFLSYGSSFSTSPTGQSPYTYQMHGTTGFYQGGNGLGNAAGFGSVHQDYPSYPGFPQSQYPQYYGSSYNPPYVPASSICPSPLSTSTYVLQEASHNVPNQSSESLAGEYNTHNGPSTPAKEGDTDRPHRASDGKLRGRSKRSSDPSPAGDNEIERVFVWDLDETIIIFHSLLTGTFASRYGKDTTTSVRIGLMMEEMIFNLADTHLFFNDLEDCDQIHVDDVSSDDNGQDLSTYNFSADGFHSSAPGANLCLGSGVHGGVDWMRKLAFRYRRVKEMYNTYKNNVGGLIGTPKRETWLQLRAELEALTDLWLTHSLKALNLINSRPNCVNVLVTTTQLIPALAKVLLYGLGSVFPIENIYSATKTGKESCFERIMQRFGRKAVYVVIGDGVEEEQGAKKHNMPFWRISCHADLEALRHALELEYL
Target sequence (Q15475 whole entry, looked up): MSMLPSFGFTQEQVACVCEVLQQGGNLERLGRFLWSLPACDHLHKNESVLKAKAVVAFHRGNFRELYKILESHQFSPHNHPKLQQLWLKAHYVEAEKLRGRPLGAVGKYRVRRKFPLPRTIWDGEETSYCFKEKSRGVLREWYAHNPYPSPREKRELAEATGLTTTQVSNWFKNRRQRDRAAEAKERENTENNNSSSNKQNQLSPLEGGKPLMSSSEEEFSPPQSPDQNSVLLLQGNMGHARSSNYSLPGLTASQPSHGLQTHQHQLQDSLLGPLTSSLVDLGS
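Homogeneous AlphaScreen proximity assay pairing GST-Six1 with His-tagged Eya2 (added as 5X mix: 250 nM and 500 nM) in 50 mM Tris pH 8.0, 300 mM NaCl, 1 mM TCEP. Glutathione donor and nickel acceptor beads; 1 h, 37 °C, dark.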
CtBP-E1A blk – inhibitors of CtBP/E1A interaction; AlphaScreen GST-E1A/His-CtBP binding, 1536-well; active compounds read low; control for the full effect not named in the record; activity change, % (test concentration not listed); 340,000 compounds, 0.49% hits; in the data active means activity change below about -65%; inconclusive means about -30% to -65%; inactive means above about -30%; note: % is set by controls: 0 for no effect and ±100 for the full control effect
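In 5 uL wells, 23 nL compound meets equimolar GST-E1A and His-CtBP (5X stock 125 nM each) for 2 h, 37 °C. Beads (5X, 50 ug/mL) then 1 h, 37 °C, dark.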
* marks the source's active call; other numbers are inactive results; . = no result given; & = joins results of further samples; [ ] = dose if it differs, or a comment.

SMILES,TRPML1 agonist,TRPML1 blocker,D2 agonist,PINK1 modulator,Six1-Eya2 blk,CtBP-E1A blk
COc1ccc(C(=O)NC2CCc3ccccc32)cc1OC1CCN(C(C)=O)CC1 (configuration not stated),-0.3,-4.3,-1.6,-0.1%,3.6,2.9
C[C@@H]1CN([C@@H](C)CO)C(=O)CCCn2nncc2CO[C@@H]1CN(C)C(=O)NC1CCCCC1,-0.1,-3.3,-4.7,0.5%,14.1,6.9
COc1ccc(NC(=O)c2ccc(CNc3c(NC4CCCCC4)c(=O)c3=O)cc2)c(OC)c1,0.9&-0.8,37.7&-21.8,0.0&-2.4,3.8%&1.2%,-4.3&-14.6,-1.8&-3.7
COc1ccc(Oc2cnc3ccccc3n2)cc1,0.1,-2.2,-3.4,0.0%,18.3,3.0
CCc1ccccc1NC(=O)c1nnn(Cc2ccc(Cl)cc2)c1N,5.2,1.9,.,3.6%,.,.
COc1ccc(CC(=O)OCc2nnc(-c3ccccc3)o2)cc1,-0.7,-7.7,-5.2,0.8%,3.8,7.9
COc1ccc(NC(=O)c2ccc3nc[nH]c3c2)cc1,2.5,2.6,4.1,-3.3%,-15.8,-26.7
COc1ccc(S(=O)(=O)N2CCC(C(=O)NC(c3nc4ccccc4[nH]3)C(C)C)CC2)cc1 (configuration not stated),0.2,-1.6,-2.1,7.9%,-0.3,-0.9
COc1ccc(/C(O)=C2/C(=O)C(=O)N(c3ccccn3)C2c2ccc(F)cc2)cc1 (configuration not stated),0.2,13.0,-0.8,-0.5%,1.2,2.9
O=C(CSc1nc2ccccc2[nH]1)NCCN1CCCCC1,-0.3,-14.6,-2.2,-0.8%,-3.3,5.4
CC1(C)Cc2c(cnn2-c2cccc(F)c2)C(NC(=O)C2CCOCC2)C1 (configuration not stated),0.3,19.7,-2.5,-0.6%,-3.8,9.2
Cc1nn(-c2ccc(F)cc2F)c2c1-c1nc(N3CCCC3)ncc1CC2,1.0,93.9,-3.0,4.0%,-1.8,-8.9
CC1CCc2c(C(=O)N3CCN(S(=O)(=O)c4cccs4)CC3)csc2C1 (configuration not stated),1.0,-6.6,-3.1,-3.6%[38.3 µM],-4.9,-6.6
CC(=O)c1cccc(NC(=O)c2cc(C(C)C)on2)c1,-0.1,30.0,-1.8,1.4%,-0.2,6.3
Cc1cc(C(=O)CN2C(=O)c3ccccc3S2(=O)=O)c(C)n1CC1CCCO1 (configuration not stated),-0.2,18.1,-0.1,0.4%,-0.6,-1.5
Cn1c(=O)c2c(nc(N3CCN(c4ccc([N+](=O)[O-])cc4)CC3)n2C)n(C)c1=O,0.9,0.5,-18.9,0.3%,-1.2,-1.9
COc1cccc(CNC(=O)c2ccc(C(=O)NCc3cccc(OC)c3)cc2)c1,1.0,20.3,2.2,0.1%,6.5,1.0
CC(C)CNS(=O)(=O)c1cc2c3c(c1)CCC(=O)N3CCC2,-0.1,21.3,-0.3,0.7%,6.6,.
C[C@@H]1c2ccccc2N2C[C@H](Cc3ccc(C(=O)c4ccccc4)cc3)C[C@@H]12,.,.,-2.1,-0.2%,-23.9,0.0
CCC(=O)N(CC)C1=C(O)c2ccccc2C(=O)C1=O,-0.1,6.3,4.7,1.3%,-5.9,-6.5
CCCCN(C(=O)CC1OC(=O)c2ccccc21)c1c(N)n(CCCC)c(=O)[nH]c1=O (configuration not stated),-0.9,-1.3,-3.7,0.9%,1.9,-0.5
COc1cccc(N(CC(=O)NC(C)(C)C)C(=O)C2CSC(=O)C2)c1 (configuration not stated),0.1,-5.5,-2.5,14.8%[38.3 µM],4.8,-10.0
Cc1ccc(C)c(NC(=O)CN(C)C(=O)[C@@H](NC(=O)c2ccc(C(C)(C)C)cc2)C(C)C)c1,0.0,0.6,1.0,-3.8%,-2.9,-0.9
O=C1CCCCN1CCC(=O)N1CCCC(Nc2ccccc2)C1 (configuration not stated),2.5,-11.4,-3.4,-0.4%,-1.5,.

Individual results from the entries so far:
Reading of `COc1ccc(C(=O)NC2CCc3ccccc32)cc1OC1CCN(C(C)=O)CC1` (configuration not stated) in TRPML1 blocker: -4.3
Reading of `C[C@@H]1CN([C@@H](C)CO)C(=O)CCCn2nncc2CO[C@@H]1CN(C)C(=O)NC1CCCCC1` in TRPML1 blocker: -3.3
Reading of `COc1ccc(NC(=O)c2ccc(CNc3c(NC4CCCCC4)c(=O)c3=O)cc2)c(OC)c1` in CtBP-E1A blk: -1.8&-3.7
Reading of `Cc1ccc(C)c(NC(=O)CN(C)C(=O)[C@@H](NC(=O)c2ccc(C(C)(C)C)cc2)C(C)C)c1` in TRPML1 blocker: 0.6
Reading of `COc1cccc(CNC(=O)c2ccc(C(=O)NCc3cccc(OC)c3)cc2)c1` in PINK1 modulator: 0.1%
Reading of `O=C1CCCCN1CCC(=O)N1CCCC(Nc2ccccc2)C1` (configuration not stated) in Six1-Eya2 blk: -1.5

Five compounds drawn at random from those above:
SMILES,TRPML1 agonist,TRPML1 blocker,D2 agonist,PINK1 modulator,Six1-Eya2 blk,CtBP-E1A blk
CC1(C)Cc2c(cnn2-c2cccc(F)c2)C(NC(=O)C2CCOCC2)C1 (configuration not stated),0.3,19.7,-2.5,-0.6%,-3.8,9.2
CC1CCc2c(C(=O)N3CCN(S(=O)(=O)c4cccs4)CC3)csc2C1 (configuration not stated),1.0,-6.6,-3.1,-3.6%[38.3 µM],-4.9,-6.6
COc1ccc(/C(O)=C2/C(=O)C(=O)N(c3ccccn3)C2c2ccc(F)cc2)cc1 (configuration not stated),0.2,13.0,-0.8,-0.5%,1.2,2.9
COc1cccc(CNC(=O)c2ccc(C(=O)NCc3cccc(OC)c3)cc2)c1,1.0,20.3,2.2,0.1%,6.5,1.0
CCc1ccccc1NC(=O)c1nnn(Cc2ccc(Cl)cc2)c1N,5.2,1.9,.,3.6%,.,.

Record cards (already shown). Values in the order: TRPML1 agonist, TRPML1 blocker, D2 agonist, PINK1 modulator, Six1-Eya2 blk, CtBP-E1A blk
`O=C(CSc1nc2ccccc2[nH]1)NCCN1CCCCC1` is listed as -0.3, -14.6, -2.2, -0.8%, -3.3, 5.4
`Cn1c(=O)c2c(nc(N3CCN(c4ccc([N+](=O)[O-])cc4)CC3)n2C)n(C)c1=O` is listed as 0.9, 0.5, -18.9, 0.3%, -1.2, -1.9

(listing goes on)
SMILES,TRPML1 agonist,TRPML1 blocker,D2 agonist,PINK1 modulator,Six1-Eya2 blk,CtBP-E1A blk
Cc1nc2ccccc2c(=O)n1NC(=O)c1ccc(Cl)c([N+](=O)[O-])c1,2.0,-20.5,2.4,-4.0%,4.7,-1.7
COc1ccc(NC(=O)c2cc(C)cc(C)c2)cc1[N+](=O)[O-],2.3,17.2,-1.5,8.7%,-3.3,-2.8
CCOC(=O)c1ccccc1NC(=O)c1cn(-c2ccc(C)c(C)c2)c(=O)c2ccccc12,2.1,-1.2,-0.8,4.1%,2.9,-3.9
Cc1ccc(-n2nc3c(=O)n(CCCC(=O)NC4CCC(C)CC4)nc(C)c3c2C)cc1 (configuration not stated),-0.5,4.4,-2.1,1.1%,1.1,1.8
Cc1cccc(OC(C)C(=O)Nc2ncn[nH]2)c1 (configuration not stated),0.0,2.7,.,0.7%,.,.
N#CC(=C1C=CC(=NO)C(Cl)=C1)c1ccccc1,2.9,.,-6.9,4.0%,-3.4,-0.5
Cc1cc(C(F)F)nn1CC(=O)NCc1ccco1,-0.4,4.4,-3.0,1.5%,3.3,9.3
Cc1oc(C(=O)O)cc1COc1cccc2ccccc12,0.6,13.9,-2.0,1.1%,-3.6,-0.8
NC(=O)c1sc2nc3c(c(-c4cccs4)c2c1N)CCCCC3,0.4,6.3,-3.3,0.0%,-4.2,4.7
Cn1ncc(Cl)c1C(=O)Nc1ccc(Cl)cn1,-0.3,-19.2,-2.5,0.0%,8.2,12.5
CN(C)CCCN(Cc1ccccc1)C(=S)NCc1ccccc1,2.7,23.6,-3.6,0.6%,-15.5,.
COc1ccc(NC(=O)CSc2nc(-c3ccccc3)nc3c2Cc2c(CO)cnc(C)c2O3)cc1Cl,0.7,15.9,.,0.2%,.,.
Cn1c(=O)c(-c2ccccc2)nn2c3ccccc3nc12,1.2,3.1,0.4,-1.0%,2.7,4.3
CN(C)CCNC(=S)Nc1ccc(Br)cc1,-0.5,8.5,-6.2,-1.5%,6.8,8.5
Cc1cccn2c(=O)c(C(=O)NCCc3ccc(Cl)cc3)cnc12,3.5,-4.2,.,2.5%,.,.
COc1cccc(C(=O)Nc2ccccc2-c2nnc(-c3ccc(C(C)(C)C)cc3)o2)c1,0.9,2.7,.,-5.1%,.,.
c1ccc(SCCOCCN2CCc3ccccc3C2)cc1,-0.2,6.3,-6.9,9.6%,6.6,6.1
CCN(CC(=O)N1CCOCC1)S(=O)(=O)c1ccc(F)cc1,-0.4,-8.7,-3.6,0.8%,7.7,-6.6
Cc1cccc(C)c1NC(=O)C1c2ccccc2OCC(=O)N1CC(F)(F)F (configuration not stated),-0.8,.,.,-1.2%,0.8,1.1
CC(=O)c1c(C)[nH]c(C(=O)CSc2nnc(-c3ccc(Cl)cc3)n2CC2CCCO2)c1C (configuration not stated),0.0,-11.1,4.1,2.8%,-1.7,-14.5
CSc1ccccc1NC(=O)C1CC(c2c(F)cccc2Cl)=NO1 (configuration not stated),0.9,-2.7,-5.0,0.3%,3.4,9.4
CN(C)S(=O)(=O)c1cccc(C(=O)C2=C3SC=C(c4ccccc4)N3CC2)c1,-0.6,-11.4,1.7,1.6%,-5.1,-2.5
CC(NC(=O)c1ccc(C#N)cc1)C1CC2CCC1C2 (configuration not stated),-0.3,-0.7,4.6,0.7%,18.8,0.0
c1ccc(C2CC(c3cccs3)Nc3nnnn32)cc1 (configuration not stated),-1.1,10.7,0.4,1.6%,-0.9,-6.1
CCn1c(=O)[nH]c(=O)c2c(N)c(C(=O)c3ccccc3OC)sc21,4.3,-18.1,12.5,-1.4%,3.0,-14.3
CCOC(=O)CNc1nc(Oc2ccc(=O)n(C)n2)nc(N(CC)CC)n1,3.2&0.5,29.0&18.9,-4.7,-0.8%&-4.0%,7.6,1.6
CCOCCCNC(=O)C1CC(=O)N(CCc2ccc(C)cc2)C1 (configuration not stated),0.4,17.8,2.4,0.5%,11.9,3.0
